From PubChem
MgrA DNA FP: S. aureus MgrA-DNA binding modulation | AID 602314 | fluorescence polarization | inhibition, %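 (about 10 µg/mL by stock and volumes)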 | 84,000 tested, 0.13% active;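 active means above 50% in either of two replicates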;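 further: 0% = protein plus DNA without compound and 100% = DNA alone without protein; higher means less MgrA bound to DNA so lower polarization; one replicate is shown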
S aureus helic: blocks Staphylococcus aureus DNA helicase; purified S. aureus helicase, fluorescence unwinding assay; about half of the hits fall short of the stated cut; inhibition, %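 (tested at about 80 µM)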; 120,000 tested, 0.05% active;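 active means both duplicates at 50% or more, or one of them with a favoured structure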;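 further: 0% = mean of negative control wells and 100% = mean of positive control wells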
The depositor's hits bear a star; x = not tested or not shown; & = joins results of further samples.

| MgrA DNA FP | S aureus helic | mol |
| --- | --- | --- |
| 0.1 | 7 | Cc1nc(Sc2ccccc2)c2oc3ccccc3c2n1 |
| x | 1 | COc1ccc(Br)cc1CN(C)Cn1c(NCCO)nc2ccccc21 |
| x | -15 | CC(=O)Nc1nc(COC(=O)c2cc(=O)[nH]c3ccccc23)cs1 |
| -1.4 | x | O=C(CCOc1ccc(F)cc1)Nc1ccc(Cl)cc1 |
| 1.0 | x | CSC1=C(C#N)C(=O)NC2(CCCCC2)S1 |
| x | 18 | CN(C)/N=C/C=C1\CCC(P(=S)(N2CCOCC2)N2CCOCC2)=C1N1CCOCC1 |
| x | -5 | OC(CN1CCOCC1)c1ccc2cc[nH]c2c1 (stereo unspecified) |
| -1.8 | 11 | NS(=O)(=O)c1ccc(N=Cc2c3ccccc3cc3ccccc23)cc1 |
| -0.2 | -19 | O=C(CCn1cnc2ccccc2c1=O)Nc1ccccc1C(F)(F)F |
| x | 3 | Cc1nn(Cc2nc(-c3cccs3)no2)c(C)c1Br |
| x | -47 | N#Cc1nc2c(-c3nc4ccccc4s3)c(N)n(CCc3ccccc3)c2nc1C#N |
| x | 2 | CC(NC(N)=O)C(=O)OCc1ccc(Cl)cc1Cl (stereo unspecified) |
| x | -27 | COc1ccc(CN2CCN(C(=O)CN3C(=O)C4C5C=CC(C5)C4C3=O)CC2)c(OC)c1OC (stereo unspecified) |
| x | -16 | COc1ccc(-c2noc(N3CCC(C(=O)NC(C)CCc4ccccc4)CC3)n2)cc1 (stereo unspecified) |
| 0.3 | 13 | Cc1ccc2nc(C)cc(C(=O)OCC(=O)C(C)(C)C)c2c1 |
| 4.0 | 8 | O=C(NCC1CCCO1)c1ccc(CS(=O)(=O)c2ccc(Cl)cc2)o1 (stereo unspecified) |
| -0.1 | x | CSC(=Nc1ccc(Cl)cc1)N(C)C |
| 0.9 | x | O=c1c(N2CCCCC2)coc2ccccc12 |
| 1.4 | 4 | Nc1cc(=O)[nH]c(SCC(=O)NC2CCCCC2)n1 |
| 0.0 | x | CC(=O)CC(=O)Nc1ccccc1Cl |
| x | -6 | Cc1nc2ccccc2n1CCc1nc2c3ccccc3nc(=S)n2[nH]1 |
| 11 | -22 | Cc1ccc2c(nc3s/c(=C\c4ccc(-c5ccccc5F)o4)c(=O)n32)c1C |
| 0.2 | 1 | NCCS(=O)(=O)N1CCCC1 |
| x | 12 | Cc1c(C(=O)N2CCOCC2)[nH]c2c1C(=O)CC(c1ccccc1Cl)C2 (stereo unspecified) |

Ordered by length of the SMILES (largest number first): 7 of the compounds above
| MgrA DNA FP | S aureus helic | mol |
| --- | --- | --- |
| x | 12 | Cc1c(C(=O)N2CCOCC2)[nH]c2c1C(=O)CC(c1ccccc1Cl)C2 (stereo unspecified) |
| 4.0 | 8 | O=C(NCC1CCCO1)c1ccc(CS(=O)(=O)c2ccc(Cl)cc2)o1 (stereo unspecified) |
| 0.3 | 13 | Cc1ccc2nc(C)cc(C(=O)OCC(=O)C(C)(C)C)c2c1 |
| 1.4 | 4 | Nc1cc(=O)[nH]c(SCC(=O)NC2CCCCC2)n1 |
| 0.9 | x | O=c1c(N2CCCCC2)coc2ccccc12 |
| 0.0 | x | CC(=O)CC(=O)Nc1ccccc1Cl |
| 0.2 | 1 | NCCS(=O)(=O)N1CCCC1 |

(listing goes on)
| MgrA DNA FP | S aureus helic | mol |
| --- | --- | --- |
| x | 10 | O=C(COC(=O)Cn1nnc(-c2ccccc2)n1)Nc1nc(-c2ccccc2)cs1 |
| 4.2 | 3 | O=C(Cc1nc2ccccc2o1)c1cccnc1 |
| 1.5 | 14 | Cc1cc(C)cc(Oc2coc3cc(O)ccc3c2=O)c1 |
| 20 | -51 | O=c1c2ccc(N3CCOCC3)c3cccc(c32)c2nc3ccccc3n12 |
| 4.2 | 5 | CCOc1ccc(NC(=O)c2cc3ccccc3o2)cc1 |
| x | -18 | O=C1NC(=O)/C(=C/C(=O)c2ccccc2)S1 |
| 1.9 | 0 | CCC(C)(C)C(=O)Nc1ccc(Cl)cc1 |
| -9.4 | 21 | COC(=O)CCc1csc(N)n1 |
| x | 16 | c1ccc2c(c1)c1ccccc1c1nn3nnnc3nc21 |
| x | 2 | Cc1nc2ccccc2c(=O)n1-c1ccc(C(=O)NC2(C)CCS(=O)(=O)C2)cc1 (stereo unspecified) |
| 0.6 | x | CC(C)(C)C(=O)Cn1nnc(-c2cc(Cl)cc(Cl)c2)n1 |
| x | 18 | Cc1ccc(NC(=O)c2ccc3noc(-c4ccccc4)c3c2)c(C)c1 |
| x | -9 | Cc1cccc(NC(=O)CSc2cccc[n+]2[O-])c1C |
| x | -2 | N#C/C(=C\c1cc2ccccc2nc1N1CCOCC1)C(=O)Nc1ccc2c(c1)OCCO2 |
| 1.2 | -13 | O=C(CCN1C(=O)c2ccccc2S1(=O)=O)Nc1cccc(C(=O)O)c1 |
| x | -12 | COc1ccc(S(=O)(=O)NC23CC4CC(C2)CC(C(=O)O)(C4)C3)cc1 |
| -2.4 | 12 | COc1ccccc1N1CCN(C2C3CC4CC(C3)CC2C4)CC1 (stereo unspecified) |
| -3.2 | x | Cc1c(C)c(C)c(CSC(=N)N)c(C)c1C |
| x | -12 | CC1(C)CC(NS(=O)(=O)c2ccc(F)cc2)CC(C)(C)N1 |
| 0.4 | 6 | Cc1cccc(NC(=O)CSc2nc3c(cc2C#N)C(=O)CC(C)(C)C3)c1 |
| x | 7 | CC1CCCCN1C(=O)CCn1c(=S)oc2ccccc21 (stereo unspecified) |
| -6.1 | 8 | CC1(C(=O)O)CCC(C(=O)N2CCCCC2)C1(C)C (stereo unspecified) |
| x | -3 | CCn1c(=O)c2c(O)cc(=O)oc2c2ccccc21 |
| -1.1 | 11 | CC(C)NS(=O)(=O)c1ccc(OCC(=O)NC2CCCCC2)c(Cl)c1 |
| x | -26&-5 | CCCn1c(=S)[nH]c2ccccc21 |
| 12 | x | Cc1ccc(Nc2n[nH]c(=S)s2)c(C)c1 |
| -0.2 | 14 | O=C1CC(c2ccccc2)N=C(SCC(=O)Nc2ccccc2)N1 (stereo unspecified) |
| x | -19 | C=C(C)Cn1c(CCNC(=O)CCC)nc2ccccc21 |
| -1.5 | 10 | CC(C)(C)C(=O)COC(=O)c1sc2ccccc2c1Cl |
| -3.1 | 2 | Cc1ccc2c(c1)CCCN2C(=O)c1ccc2c(c1)OCO2 |
| x | 9 | O=C(Nc1ccccc1)c1cnc2sccn2c1=O |
| x | 13 | CC(C)(C)NC(=O)Cn1cc(S(=O)(=O)Cc2ccccc2)c2ccccc21 |
| x | -13 | Cc1cc(C)nc(SCc2ccccc2C(=O)N2CCN(C(=O)c3ccco3)CC2)n1 |
| 3.6 | 1 | COc1ccc(-c2nnc(N)s2)cc1 |
| -1.1 | -6 | COCCN(C(=O)Nc1ccccc1OC)c1nc2ccccc2s1 |
| -1.2 | x | CCOC(=O)C1=C(C)N=c2s/c(=C\c3cccc(OC)c3)c(=O)n2C1c1ccc(OC)c(OC)c1 (stereo unspecified) |
| 0.2 | 1 | CCN(CC)C(=O)c1ccccc1C |
| x | 9 | CCN=C1S/C(=C\c2ccc(OC)c(OC)c2)C(=O)N1CC |
| x | 0 | CC1CCC2(CC1)C(=O)NC(=O)N2C (stereo unspecified) |
| -2.9 | x | CCc1cccc(C)c1NC(=O)c1ccco1 |
| 0.5 | 4 | O=C(c1cc(-c2ccc(F)cc2)no1)N1CCN(c2cccc(Cl)c2)CC1 |
| x | -20 | O=c1c2ccccc2n2nncc2n1Cc1cccc(F)c1 |
| 0.4 | x | O=C1c2cccc3c(Br)ccc(c23)C(=O)N1Cc1cccnc1 |
| 1.2 | 0 | O=C1S/C(=C/c2ccc3c(c2)OCO3)C(=O)N1CN1CCCCC1 |
| x | -5 | O=C(Nc1ccc2c(c1)OCO2)c1c(Cl)nc2ccccn12 |
| x | 5 | Cc1cc(C)c(C(N)=O)c(SCC(=O)Nc2c(C)n(C)n(-c3ccccc3)c2=O)n1 |
| -1.8 | 16 | COC(=O)CNc1cc[nH]c(=O)c1C#N |
| x | 6 | CNC(=O)NCc1ccc(-c2csnn2)cc1 |
| -2.5 | x | O=C(CSc1nc2sc3c(c2c(=O)[nH]1)CCCC3)NCCCn1ccnc1 |
| x | -8 | c1cncc(-c2nc(NCCSCc3ccco3)c3ccccc3n2)c1 |
| x | 9 | COCc1c(C(=O)OC2CCOC2=O)oc2ccccc12 (stereo unspecified) |
| x | 9 | Cc1nc2c(ccc3nc(NC(=O)c4ccco4)sc32)s1 |
| x | -11 | CN(C(=O)COc1ncnc2sccc12)c1ccccc1 |
| -1.4 | x | O=c1cc(NCCC2=CCCCC2)c2ccccc2o1 |
| -1.0 | 0 | CCc1ccc(-n2nc3cc(C)c(NC(C)=O)cc3n2)cc1 |
| x | -4 | Cn1c(=O)[nH]c(=O)c2c1nc1n2CC(c2ccccc2)=N1 |

New compounds follow:
| MgrA DNA FP | S aureus helic | mol |
| --- | --- | --- |
| -0.8 | 8 | CCOC(=O)C1=C(C)NC2=C(C(=O)CC(c3ccco3)C2)C1c1ccc(C(F)(F)F)cc1 (stereo unspecified) |
| x | -4 | NC(=O)C1(N2CCCCC2)CCN(S(=O)(=O)c2ccc(Cl)s2)CC1 |
| -0.8 | 0 | CC(=O)Nc1ccc(S(=O)(=O)N2CCC(NC(C)=O)(c3cccc(F)c3)CC2)cc1 |
| x | 19 | CCCNC(=O)C1CN(C(=O)c2cnc(C)cn2)c2ccccc2O1 (stereo unspecified) |
| x | 8 | Cc1cc(OCC(=O)NCc2ccco2)cc(C)c1Cl |
| x | -2 | O=C1CCN(C(=O)Cc2ccc(NS(=O)(=O)c3ccc(F)cc3)cc2)CC1 |
| -0.3 | -4 | CC1CCCN(C(=O)COC(=O)COc2ccc(Cl)cc2)C1 (stereo unspecified) |
| x | -33 | COc1ccc(/C=C(\C#N)C(=O)OC(C)(C)C)cc1 |
| 1.6 | 6 | COc1ccc(CN2COc3ccc(OC)cc3C2)cc1 |
| 3.0 | 2 | Cc1ccc(CNC(=O)c2ccc(N3CCCS3(=O)=O)cc2)cc1 |
| x | 6 | Cc1ccc(OCCc2csc(N)n2)cc1 |
| 3.2 | 5 | O=C(Nc1ccccc1)N(Cc1ccco1)Cc1cccs1 |
| -2.4 | 5 | CCC1(CO)COC(c2ccco2)OC1 (stereo unspecified) |
| -0.9 | x | O=S(=O)(c1ccc(-n2c(-c3ccncc3)n[nH]c2=S)cc1)N1CCCCC1 |
| x | 18 | C=CCn1c(C2CCS(=O)(=O)C2)n[nH]c1=S (stereo unspecified) |
| x | -27 | CCN1CCC(N)CC1 |

Continued; it opens with the five that closed the last part.
| MgrA DNA FP | S aureus helic | mol |
| --- | --- | --- |
| 3.2 | 5 | O=C(Nc1ccccc1)N(Cc1ccco1)Cc1cccs1 |
| -2.4 | 5 | CCC1(CO)COC(c2ccco2)OC1 (stereo unspecified) |
| -0.9 | x | O=S(=O)(c1ccc(-n2c(-c3ccncc3)n[nH]c2=S)cc1)N1CCCCC1 |
| x | 18 | C=CCn1c(C2CCS(=O)(=O)C2)n[nH]c1=S (stereo unspecified) |
| x | -27 | CCN1CCC(N)CC1 |
| x | 7 | COc1ccccc1N1CCN(Cc2cn[nH]c2-c2ccccc2)CC1 |
| 0.2 | 7 | CN(C)CC(O)COc1ccc(C(C)(C)C)cc1 (stereo unspecified) |
| x | -5 | Cc1ccc(S(=O)(=O)N(C)c2nc3ccccc3nc2N2CCN(Cc3ccccc3)CC2)cc1 |
| -0.4 | 3 | CSc1ccccc1N1C(=O)CC(Sc2ccccc2C(=O)O)C1=O (stereo unspecified) |
| 3.8 | x | CC1(C)C2CC[C@]3(C)C(C(=O)C=C4[C@@H]5C[C@@](C)(C(=O)O)CC[C@]5(C)CC[C@]43C)[C@@]2(C)CC[C@@H]1OC(=O)CCC(=O)O (stereo partly specified) |
| 0.2 | -18 | COc1cccc(/C=C(/C(=O)OCC(N)=O)c2ccccc2)c1 |
| 1.4 | 0 | O=C(c1ccccc1)N1CCc2ccccc21 |
| 0.2 | 4 | C=CCNc1oc(-c2ccccc2C)nc1C#N |
| -0.7 | 15 | Nn1c(COc2ccccc2)nnc1SCc1cc(=O)[nH]c2ccccc12 |
| 9.4 | x | CCOC(=O)CSCCOc1ccc(C=C2C(=O)NC(=S)NC2=O)cc1OC |
| x | 5 | Cn1c(=O)c2[nH]c(SCc3ccc(Cl)c(Cl)c3)nc2n(C)c1=O |
| x | 10 | CCC(C)c1ccc(C2=Nn3c(nnc3C(C)C)SC2)cc1 (stereo unspecified) |
| -3.2 | 22 | CN(CCO)c1ccc(C(F)(F)F)cn1 |
| -0.2 | -14 | CN(C)c1ccc(/C=C/C=C2/SC(=O)N(CC(=O)N3CCCC3)C2=O)cc1 |
| x | 8 | CCOc1ccc2nc(SCC(=O)NCc3ccccc3)[nH]c2c1 |
| -2.4 | x | NC(C(=O)O)C1CCCCC1 (stereo unspecified) |
| x | -2 | CC(C)C(C)(C#N)NC(=O)CSc1nnc2ccccn12 (stereo unspecified) |
| 7.1 | 1 | O=C(/C=C/c1ccco1)Nc1cccc(NC(=O)/C=C/c2ccco2)n1 |
| x | -7 | c1ccn(-c2nonc2-c2nnc(-c3nonc3-n3cccc3)o2)c1 |
| 0.8 | 8 | CCN(CC)c1ccc(/C=N/N2CCN(Cc3ccc(Cl)cc3)CC2)c(O)c1 |
| -0.2 | x | Cc1nc(-c2nnc(SCC(=O)Nc3ccc(Cl)cc3)n2C)cs1 |
| -0.9 | 7 | CCOC(=O)c1sc2nc(SCC(=O)C(C)(C)C)n(Cc3ccccc3Cl)c(=O)c2c1C |
| x | 12 | CCc1noc(C)c1C(=O)N1CCN(S(=O)(=O)c2ccccc2)CC1 |
| 1.0 | x | N#CC1=C(Nc2ccccc2Cl)SC(c2ccncc2)NC1=O (stereo unspecified) |
| -1.3 | x | COc1ccc(Oc2ncccc2NC(=O)c2ccc(OC)cc2)cc1 |
| x | -15 | N#C/C(C(=O)NCc1ccco1)=c1/s/c(=C/c2ccncc2)c(=O)n1-c1ccccc1 |
| 2.8 | -1 | Cc1cc(=O)[nH]c(SCC(=O)N2CCCCC2)n1 |
| -2.0 | 13 | CCOC(=O)c1cc(-c2ccc(C)cc2)n(CC(=O)NCC2CCCO2)c1C (stereo unspecified) |

This is a subset, so the mix of outcomes need not match the whole.
